Assay outcomes from PubChem BioAssay.
Mtb H37Rv = Mycobacterium tuberculosis H37Rv growth inhibition, putative kinase inhibitor library, confirmatory dose response (AID 2842). M. tuberculosis H37Rv growth inhibition; higher % means a stronger effect; some inactives read as strong as hits. inhibition, % at 10 µg/mL, or IC90 in µg/mL where a hit was titrated. 24,000 tested, 5.2% active;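 active means confirmed in a dose series; about a fifth of its hits are not listed in these tables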;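 further: bacteria incubated one week before Alamar blue readout; 0% = bacteria only wells and 100% = bacteria with high antibiotic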
* hit, by the source's call. Not all compounds are listed. The share of hits here may be higher or lower than overall.

SMILES | Mtb H37Rv
NC(=O)c1c(NC(=O)C2=COCCO2)sc2c1CCCC2 | 7%
NC(=O)c1c(NC(=O)c2ccccc2Cl)sc2c1CCCCC2 | 24%
Cc1cccc(NC(=O)CSc2ccc3nnc(-c4ccc(F)cc4)n3n2)c1 | 0%
NC(=O)C1CCN(C(=O)C(=O)Nc2c3c(nn2-c2ccc(F)cc2)CSC3)CC1 | -11%
COc1cc(OC)cc(C(=O)Nc2nnc(-c3ccc(C)cc3C)o2)c1 | 84%
CCC(CC)C(=O)Nc1nnc(-c2ccccc2)s1 | 30%
Cc1c(Cc2ccc3c(c2)OCO3)sc(NC(=O)C2CC2)c1C(N)=O | -1%
Cc1cccc(-c2nnc(NC(=O)c3ccc(S(=O)(=O)N4CCCC4)cc3)s2)c1 | -1%
O=C(Nc1nnc(-c2ccc3c(c2)OCCO3)o1)c1ccc(C(=O)c2ccccc2)cc1 | -18%
CCOC(=O)c1c(NC(=O)c2ccc3ccccc3c2)sc2c1CC(C)(C)NC2(C)C | 9%
CC(C)CCn1c(NC2CCCCC2)nc2c1c(=O)[nH]c(=O)n2C | 28%
Cc1ccc(NC(=O)CC2C(=O)Nc3ccccc3N2C(=O)c2ccc(Br)cc2)cc1C (stereo unspecified) | 2.2µg/mL*
COc1ccc(-c2nnc3ccc(SCC(=O)N4CCN(c5ccccc5)CC4)nn23)cc1 | 3%
Cc1ccc(C2C(C#N)=C(SCC(=O)N3CCN(Cc4ccccc4)CC3)NC3=C2C(=O)CCC3)cc1 (stereo unspecified) | 18%
COc1ccc(CC(=O)NCCc2cc3c(OC)ccc(OC)c3[nH]c2=O)cc1 | 8%
Oc1c(C(c2ccco2)N2CCN(c3cccc(Cl)c3)CC2)sc2ncnn12 (stereo unspecified) | 4%
COc1ccc2cc(CCNC(=O)c3cccs3)c(=O)[nH]c2c1 | 3%
CN(C)CCCN1C(=O)C(=O)/C(=C(/O)c2ccncc2)C1c1ccc([N+](=O)[O-])cc1 (stereo unspecified) | -11%
Cc1ccc(C)c2[nH]c(=O)c(CCNC(=O)c3ccc(S(=O)(=O)N4CCOCC4)cc3)cc12 | 12%
CC1CCCCN1c1nc2c(c(=O)[nH]c(=O)n2C)n1Cc1ccccc1 (stereo unspecified) | 6%
Cc1ccnc(SCCn2c(N3CCCCC3)nc3c2c(=O)[nH]c(=O)n3C)n1 | -8%
COc1ccccc1NC(=O)c1oc2ccccc2c1NC(=O)/C=C\c1ccccc1 | 17%
O=C(CSc1nc2[nH]ncc2c(=O)[nH]1)N1CCCCCC1 | -6%
O=C1C(=O)N(Cc2ccccc2)C(c2ccncc2)/C1=C(/O)c1ccc2c(c1)OCCO2 (stereo unspecified) | -6%
O=C(NCC(c1ccco1)N1CCc2ccccc21)C(=O)Nc1ccc([N+](=O)[O-])cc1 (stereo unspecified) | 0%
COCCN1C(=O)C2C(c3ccccc3O)NN(Cc3ccccc3)C2C1=O (stereo unspecified) | -7%
Brc1ccc2nc(N3CCCC3)sc2c1 | 14%
COC(=O)c1ccc(CSc2ccc3nnc(-c4ccc(OC)cc4)n3n2)o1 | -4%
COc1ccc(C)cc1-n1c(SCC(=O)NC(C)C)nc2c([nH]c3ccccc32)c1=O | 7%
O=C(/C=C/c1cccs1)Nc1nnc(-c2ccc(Br)cc2)o1 | -2%
C#CCn1c(=NC(=O)c2ccccc2Cl)sc2cc(NC(C)=O)ccc21 | 13%
COc1ccccc1-n1c(=O)[nH]c2c(C(N)=O)nc(-c3ccc(C)cc3)nc21 | 0%
CCC(CC)C(=O)Nc1nnc(-c2ccccc2Cl)s1 | 8%
COC(=O)CSCc1nc2ccccc2c(=O)[nH]1 | -22%
COc1ccc(S(=O)(=O)Nc2ccc3c(c2)C(=O)Nc2cc(C)ccc2O3)cc1C | -3%
COc1ccc(Nc2nc(Nc3ccc(C)c(C)c3)c3nccnc3n2)cc1Cl | 5%
Cc1ccccc1NC(=O)CSc1ccc(-c2ccc(-n3ccnc3)cc2)nn1 | -10%
Cc1c(C(=O)O)sc2nc[nH]c(=O)c12 | -1%
C=CCSc1nc2c(c(=O)[nH]c(=O)n2C)n1CCC | 17%
Cc1ccc(Nc2nc(-c3ccc(S(=O)(=O)N4CCC(Cc5ccccc5)CC4)cc3)cs2)cc1 | -2%

A second format for some results above:
Structure,Mtb H37Rv
Cc1ccccc1NC(=O)CSc1ccc(-c2ccc(-n3ccnc3)cc2)nn1,-10%
Cc1c(C(=O)O)sc2nc[nH]c(=O)c12,-1%

Other structures
SMILES | Mtb H37Rv
CCN(c1ccccc1)S(=O)(=O)c1ccc(C(=O)Nc2nc(-c3ccc(Cl)s3)cs2)cc1 | 3%
COC(=O)c1c(N2C(=O)CC(Sc3ccccc3C(=O)O)C2=O)sc(C)c1C (stereo unspecified) | -32%
CCOC(=O)c1c(-c2ccc(F)cc2)csc1NC(=O)CN1CCOCC1 | -2%
COC(=O)c1sc(-c2ccccc2)cc1NC(=O)c1cc(OC)cc(OC)c1 | -5%
Cc1nc(C#N)c(N/N=C/c2c(F)cccc2Cl)o1 | 7%
Nc1nc(SCC(=O)Nc2ccc(Cl)cc2)[nH]c(=O)c1NC(=O)c1ccc(F)c(F)c1 | -12%
CCCc1nc(SCC(=O)c2ccc(OC)cc2)c2c(=O)n(C)c(=O)n(C)c2n1 | -4%
COc1ccc(NC(=O)c2oc3ccccc3c2NC(=O)c2ccccc2Br)cc1 | -2%
CCCCC(=O)Nc1c(C(=O)Nc2ccc(OC)cc2OC)oc2ccccc12 | 4%
CCCCC(=O)Nc1c(C(=O)Nc2ccc(OC)cc2)oc2ccccc12 | 3%
Cc1cccc(-n2nnc3c(=O)n(CC(=O)Nc4cc(C)on4)cnc32)c1 | 13%
CCOC(=O)c1nn(-c2ccccc2)c(=O)c2c(NC(=O)c3ccc(C(C)(C)C)cc3)scc12 | -1%
Nc1nc(SCC(=O)NCc2ccco2)[nH]c(=O)c1NC(=O)c1ccc(F)c(F)c1 | 2%
Cc1ccccc1NC(=O)CCCCCN1C(=O)c2ccccc2C1=O | -7%
CCOC(=O)c1nn(-c2ccc(C)cc2)c(=O)c2c(NC(=O)c3cccc(OC)c3OC)scc12 | 2%
CCOC(=O)c1ccsc1NC(=O)c1nc2ccccc2s1 | 5%
Cc1ccc2nc(NC(=O)c3cc(=O)c4ccccc4o3)sc2c1 | -1%
CCOC(=O)c1nn(-c2ccc(OC)cc2)c(=O)c2c(NC(=O)Cc3ccc(Cl)cc3)scc12 | 4%
Cc1ccc(-n2nnc3c(=O)n(CC(=O)Nc4ccc5c(c4)OCCO5)cnc32)cc1Cl | -11%
Cc1ccc(C)c(NC(=O)CSc2nc(N)c(NC(=O)c3ccco3)c(=O)[nH]2)c1 | -3%
CCCCC(=O)Nc1c(C(=O)Nc2cc(OC)ccc2OC)oc2ccccc12 | 0%
Cc1ccccc1-c1nnc(NC(=O)C2CC2)s1 | 5%
O=C1OC(C(=O)Nc2nccs2)Cc2ccccc21 (stereo unspecified) | -11%
COCCCn1c(O)c(C=Nc2ccc(O)cc2)c(C)c(C#N)c1=O | 3%
COc1cccc(/C=N/Nc2ncnc3nc[nH]c23)c1OC | -1%
Fc1ccc(Cn2cc3c(-c4ccc(F)cc4)nnc-3c3cc4c(cc32)OCCO4)cc1 | -2%
O=C(CSc1nc2ccc(N3CCOCC3)cc2c(=O)n1CCc1ccccc1)c1ccccc1 | -2%
CCCn1c(SCC(C)O)nc2c1c(=O)[nH]c(=O)n2C (stereo unspecified) | 15%
CCOC(=O)c1oc2ccccc2c1NC(=O)COc1ccc(OCC)cc1 | -2%
Cc1ccc2sc(NC(=O)c3cccc(N4C(=O)CCC4=O)c3)nc2c1C | -10%
CC(C)N1C(=O)/C(=C2/C(=O)N(CC(=O)NCCc3ccccc3)c3ccccc32)SC1=S | -8%
Cc1ccc(C(=O)Nc2sc3c(c2C(N)=O)CCN(Cc2ccccc2)C3)cc1 | 1%
Cc1ccccc1NC(=O)CSc1nc(N)c(NC(=O)c2ccco2)c(=O)[nH]1 | -9%
C=CCSc1nc2c(c(=O)n(C)c(=O)n2C)n1Cc1ccc(Cl)cc1 | 18%
CC1CCCN(S(=O)(=O)c2ccc(C(=O)Nc3ccc(O)c(-c4nc5ccccc5s4)c3)cc2)C1 (stereo unspecified) | 62%
CCOC(=O)c1ccc(NC(=O)CSc2nccn2-c2cccc(C)c2C)cc1 | 7%
O=C1C2C(c3ccc(O)cc3)NN(Cc3ccccc3)C2C(=O)N1C1CCCCC1 (stereo unspecified) | 60%
COc1cccc(-c2cc(-c3ccc(OC)c(OC)c3)nc(N)c2C#N)c1 | 1%
CC(C)(C)CC(=O)Nc1c(C(=O)Nc2cccc(Cl)c2)oc2ccccc12 | -2%
CCOC(=O)c1sc(NC(=O)C2=COCCO2)cc1C | 15%
Cc1ccc(NC(=O)CN2N=NC3C(=O)N(c4ccc(C)c(Cl)c4)C(=O)C32)cc1C (stereo unspecified) | -22%
CCOC(=O)CNc1ncnc(N)c1[N+](=O)[O-] | 3%
Cc1cc(NC(=O)CSc2ccc(-c3cccc([N+](=O)[O-])c3)nn2)no1 | -11%
CCCn1c(SC(C)C(=O)OCC)nc2c1c(=O)[nH]c(=O)n2C (stereo unspecified) | 11%
O=C(Nc1nc2c(s1)COc1ccccc1-2)c1cccc(N2C(=O)CCC2=O)c1 | 5%
CCOC(=O)c1nn(-c2ccc(C)cc2)c(=O)c2c(NC(=O)Cc3cccc4ccccc34)scc12 | -9%
Cn1c(=O)[nH]c(=O)c2c1nc(SCCN1CCOCC1)n2Cc1ccccc1 | 1%
C=CCn1c(N/N=C/c2cccnc2)nc2c1c(=O)[nH]c(=O)n2C | -2%
COc1cccc(OCCN2CCN(c3cc(C)nc4c(-c5ccccc5)cnn34)CC2)c1 | 12µg/mL*
CCc1ccc(NC(=O)CSc2ccc3nnc(-c4ccncc4)n3n2)cc1 | -5%
O=C1CNc2cc(C(=O)O)ccc2N1 | 14%
COC(=O)c1ccc2nc(Nc3nc4c(F)cc(F)cc4s3)sc2c1 | 17%
CC(=O)c1ccc(NC(=O)c2cnc3n(c2=O)CCS3)cc1 | -3%
Cc1ccccc1NC(=O)CSc1nnc(Cc2ccc(Cl)cc2)c(=O)[nH]1 | 2%
CCCC(=O)Nc1scc2c(C(=O)OCC)nn(-c3ccc(C(F)(F)F)cc3)c(=O)c12 | 13%
Cc1ccc(NC(=O)c2sc3nc4c(cc3c2N)C(=O)CCC4)cc1 | -7%
Fc1cc(F)c2nc(N3CCc4ccccc4C3)sc2c1 | 77%
COc1ccccc1NC(=O)C1=C(C)Nc2nnnn2C1c1cccc(F)c1 (stereo unspecified) | -7%
NS(=O)(=O)c1ccc(NC(=O)NC2CC(=O)N(c3ccc(Cl)cc3)C2)cc1 (stereo unspecified) | 4%
COc1cccc(NC(=O)CSc2nnc(C)c(=O)n2N)c1 | 10%
The results go on:
SMILES | Mtb H37Rv
CCCCCn1c(NCCC)nc2c1c(=O)[nH]c(=O)n2C | -3%
NC(=O)c1c(Nc2nc3ccc(F)cc3s2)sc2c1CCCC2 | 51µg/mL*
Cc1cn2c3c(=O)[nH]c(=O)n(C)c3nc2n1CCN1CCN(CCc2ccccc2)CC1 | -6%
C=CCOC(=O)C1=C(C)NC(=O)NC1c1ccc(Cl)cc1 (stereo unspecified) | 4%
O=C1C=C/C(=N\Oc2ccc([N+](=O)[O-])cc2[N+](=O)[O-])c2cccnc21 | -17%
O=C(Nc1ccc2c(c1)C(=O)NC2=O)c1ccc(F)cc1 | -8%
COc1ccc(OCC(=O)OCCNC(=O)c2cccnc2)cc1 | -4%
CC(C)CCNC(=O)NC1CC(=O)N(c2ccc3c(c2)OCCO3)C1 (stereo unspecified) | 4%
O=C(COc1ccc(Br)cc1)Nc1ccc2c(c1)OCO2 | 81%
CCOc1ccc(/C=C(/C#N)c2nc(-c3ccc4c(c3)OCO4)cs2)c(OCC)c1 | 2%
O=C(Nc1nc(-c2ccc3c(c2)CCCC3)cs1)c1coc2ccccc2c1=O | 2%
COc1ccc(NC(=O)CSc2nc(N)c(NC(=O)c3ccc(Cl)cc3)c(=O)[nH]2)cc1 | -7%
Cc1ccc(C(=O)NCCSc2ncc(-c3ccccc3)[nH]2)cc1 | 55%
CCOC(=O)c1nn(-c2ccc(OC)cc2)c(=O)c2c(NC(=O)C(CC)CC)scc12 | 33%
CCC(Sc1ccc(C)cc1)C(=O)Nc1nnc(C)s1 (stereo unspecified) | 19%
O=C(Nc1nc(-c2ccc(-c3ccccc3)cc2)cs1)c1nc2ccccc2s1 | 5%

14 successive records out of the list so far:
SMILES | Mtb H37Rv
NC(=O)c1c(NC(=O)C2=COCCO2)sc2c1CCCC2 | 7%
NC(=O)c1c(NC(=O)c2ccccc2Cl)sc2c1CCCCC2 | 24%
Cc1cccc(NC(=O)CSc2ccc3nnc(-c4ccc(F)cc4)n3n2)c1 | 0%
NC(=O)C1CCN(C(=O)C(=O)Nc2c3c(nn2-c2ccc(F)cc2)CSC3)CC1 | -11%
COc1cc(OC)cc(C(=O)Nc2nnc(-c3ccc(C)cc3C)o2)c1 | 84%
CCC(CC)C(=O)Nc1nnc(-c2ccccc2)s1 | 30%
Cc1c(Cc2ccc3c(c2)OCO3)sc(NC(=O)C2CC2)c1C(N)=O | -1%
Cc1cccc(-c2nnc(NC(=O)c3ccc(S(=O)(=O)N4CCCC4)cc3)s2)c1 | -1%
O=C(Nc1nnc(-c2ccc3c(c2)OCCO3)o1)c1ccc(C(=O)c2ccccc2)cc1 | -18%
CCOC(=O)c1c(NC(=O)c2ccc3ccccc3c2)sc2c1CC(C)(C)NC2(C)C | 9%
CC(C)CCn1c(NC2CCCCC2)nc2c1c(=O)[nH]c(=O)n2C | 28%
Cc1ccc(NC(=O)CC2C(=O)Nc3ccccc3N2C(=O)c2ccc(Br)cc2)cc1C (stereo unspecified) | 2.2µg/mL*
COc1ccc(-c2nnc3ccc(SCC(=O)N4CCN(c5ccccc5)CC4)nn23)cc1 | 3%
Cc1ccc(C2C(C#N)=C(SCC(=O)N3CCN(Cc4ccccc4)CC3)NC3=C2C(=O)CCC3)cc1 (stereo unspecified) | 18%
